# Screening results deposited in PubChem by several laboratories.
# Mtb H37Rv = M. tuberculosis H37Rv growth inhibitors, H37Rv strain (AID 1626); 220,000 tested, 0.95% active; M. tuberculosis H37Rv growth inhibition; higher % means a stronger effect; inhibition, % at 10 µM; hits with a dose series show IC50 in µM;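 active = confirmed in a dose series; inconclusive = inhibition above 80% but not taken into the dose series; inactive = below 80% or under 30% at every dose of the series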;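 note: bacteria incubated seven days before Alamar blue readout; 0% = bacteria only wells and 100% = bacteria with antibiotic wells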
# Mtb betalactam = beta-lactam sensitization of Mtb H37Rv, H37Rv. inhibition, % at 25 µM. M. tuberculosis H37Rv growth with meropenem, percent inhibition; hits of this screen are not shown here. 330,000 tested, 0.27% active;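 active = about 74% or more and at least 40 points above the plate without the antibiotic, then above 30% in a dose series; inconclusive = first-round hits that could not be retested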;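 note: growth measured after seven days incubation then overnight dye step; 0% = bacteria only wells and 100% = bacteria with antibiotic; twin plates without the antibiotic show which effects depend on it; some results filed as inactive read as strong as hits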
# Arbovirus inh = antivirals against arbovirus infection, primary screen, cell-based, full library, 10K replicate subset; arbovirus infection cell-based antiviral screen; inhibition, % at 10 µM; 200,000 tested, 0.37% active;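 active = inhibition from about 30%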;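 note: bluetongue infection of BSR cells; cell survival read as ATP light after 72 h; 0% = infected wells without compound and 100% = uninfected wells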
# YopH PTP inh = YopH tyrosine phosphatase inhibitors, primary screen, biochemical, fluorescence Ex485/Em525. YopH tyrosine phosphatase [Yersinia enterocolitica]. AID 898, 2007. 140,000 tested, 0.16% active. inhibition, %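 (about 10 µM by stock and volumes)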;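 active = inhibition of 50% or more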;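 note: controls were vehicle for no effect and minimum signal wells for full effect; inactives centre near -20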
# RecA intein inh = Mtb RecA intein splicing inhibitors, primary screen, biochemical, fluorescence, HTS; inhibition, %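 (about 9 µM by stock and volumes)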; cell-free RecA intein splicing; 290,000 tested, 0.75% active; AID 2221, 2009; Protein RecA (Mycobacterium tuberculosis (strain ATCC 25618 / H37Rv)), P9WHJ3; in the data active = inhibition above about 30%; inconclusive = no clear call, values can overlap the other calls;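 note: 0% = vehicle wells and 100% = reference inhibitor control wells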
# Target sequence (P9WHJ3 whole entry, looked up): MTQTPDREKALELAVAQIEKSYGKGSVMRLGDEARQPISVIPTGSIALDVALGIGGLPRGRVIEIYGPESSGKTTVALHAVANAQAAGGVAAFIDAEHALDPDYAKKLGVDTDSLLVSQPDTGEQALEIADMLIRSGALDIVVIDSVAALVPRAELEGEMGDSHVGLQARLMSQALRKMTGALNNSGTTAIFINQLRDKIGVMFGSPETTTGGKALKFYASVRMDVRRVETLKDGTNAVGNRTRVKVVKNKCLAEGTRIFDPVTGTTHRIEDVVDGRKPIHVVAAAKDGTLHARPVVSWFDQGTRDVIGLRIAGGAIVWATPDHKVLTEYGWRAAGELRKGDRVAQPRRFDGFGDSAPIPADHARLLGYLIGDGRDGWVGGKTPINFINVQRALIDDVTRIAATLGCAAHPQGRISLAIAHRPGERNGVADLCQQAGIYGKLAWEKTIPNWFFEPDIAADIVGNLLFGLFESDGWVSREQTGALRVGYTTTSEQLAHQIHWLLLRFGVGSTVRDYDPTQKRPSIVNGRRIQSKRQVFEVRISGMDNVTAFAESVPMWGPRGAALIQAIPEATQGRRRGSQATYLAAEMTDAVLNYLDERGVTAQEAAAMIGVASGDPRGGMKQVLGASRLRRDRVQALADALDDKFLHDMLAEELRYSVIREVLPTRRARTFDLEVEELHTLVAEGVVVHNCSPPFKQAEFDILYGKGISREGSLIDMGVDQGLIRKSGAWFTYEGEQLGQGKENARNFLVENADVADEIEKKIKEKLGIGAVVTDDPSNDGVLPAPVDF
# Arbovirus inh repeat = also measured in Arbovirus inh; calls as there; inhibition, %; measured here: 10K subset replicate screen; many hits read low in the repeat;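 first of two repeat runs on a subset; 0% = infected and 100% = uninfected wells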
# * marks the source's active call; other numbers are inactive results; ? = inconclusive; · = no result given.
SMILES,Mtb H37Rv,Mtb betalactam,Arbovirus inh,YopH PTP inh,RecA intein inh,others
CC(=O)N=C1SC2CS(=O)(=O)CC2N1c1ccc(-c2nc3ccc(C)cc3s2)cc1 (stereo unspecified),-5.1%,16.9,-14.8,-18.6,0.1,
CCCn1nnc(NC(=S)NC(=O)c2cccs2)n1,-2.8%,67.6,3.1,-25.2,4.0,
N#Cc1cc(-c2ccccc2)oc1NC(=O)c1ccco1,-4.6%,-6.8,-7.1,-20.2,-2.2,
O=C(CCNC(=O)c1ccc([N+](=O)[O-])cc1)Nc1ccc(F)cc1,·,9.1,·,·,0.0,
Cn1ccc(=NC=C(C#N)C#N)c2ccccc21,3.7%,-4.2,12.6,·,-0.8,
CC(C)CC(NC(=O)C(NC(=O)OC(C)(C)C)C(C)C)C(N)=O (stereo unspecified),6.6%,-7.7,3.0,·,-1.2,
COc1cccc(NC(=O)CN(c2cccc(C(F)(F)F)c2)S(C)(=O)=O)c1,-2.2%,9.1,-2.0,-15.2,-2.1,
CN(c1ccc(OCC(=O)Nc2nc3ccccc3s2)cc1)S(=O)(=O)c1ccccc1,4.2%,10.4,3.4,-26.4,-0.3,
Cc1ccc2nc(SCC(=O)Nc3cccc(Cl)c3)nc(=O)n2c1,·,-11.6,·,·,0.5,
CCCCCCc1cc2cc(C(=O)Nc3ccccc3)c(=O)oc2cc1O,-3.2%,-4.9,27.5,-35.3,-11.1,
O=C(c1cc(-c2ccncc2)nc2ccccc12)N1CCN(c2ccc(N3CCOCC3)nn2)CC1,·,-5.0,1.6,2.6,·,
O=S(=O)(Nc1cccc2c1CCCC2)c1cccc(C(F)(F)F)c1,3.5%,0.2,7.0,-57.3,2.9,
O=C1C2C3CCCC3=C3CCCC3C2C(=O)N1c1ccccc1 (stereo unspecified),4.1%,-11.8,11.3,-0.9,3.9,
COc1ccc(/C=C/C(=O)Oc2ccc(/C=N/NC(=O)c3ccncc3)cc2)cc1,·,98.2,·,·,2.8,
COc1ccc(CN2CCNC(=O)C2CC(=O)N(C)Cc2nonc2C)c(F)c1 (stereo unspecified),·,-6.8,·,·,-3.3,
CN(C)c1ccc(C(C(=O)NC2CCCC2)N(C(=O)c2csnn2)C2CC2)cc1 (stereo unspecified),·,-2.9,·,·,-3.9,
Cc1ccnc(N2CCN(c3cc(C)c(C#N)c4nc5ccccc5n34)CC2)c1,-5.5%,-2.2,·,-12.2,2.6,
CC(C)CN(CC(C)C)c1ccc(/C=N/n2cnnc2)cc1[N+](=O)[O-],10.9%,28.5,-20.5,·,4.0,
Cc1noc(C)c1COc1cccc(C(=O)Nc2ccccc2N2CCOCC2)c1,5.6%,3.0,6.9,-22.6,-0.6,
Nc1nc(-c2ccc(Cl)cc2)nn1C(=O)c1cccnc1,6.0%,-1.1,-0.2,-4.8,13.1,
C=CCn1c(SCC(=O)NCCOC)nnc1-c1cc2c(s1)CCC(CC)C2 (stereo unspecified),5.0%,-9.8,-10.2,-12.7,-0.6,
COc1ccc(C(=O)OCC(=O)c2ccc(C3CCCCC3)cc2)cc1,-4.0%,-5.7,17.9,-28.6,0.0,
O=C(c1cccc(F)c1)N1CCCC(C(=O)N2CCN(c3ccccc3)CC2)C1 (stereo unspecified),-8.1%,-5.5,·,·,-1.0,
Cc1onc(-c2ccccc2)c1-c1csc(COc2ccccc2)n1,0.2%,9.8,·,·,11.2,
Cc1ccc2c(c1)NC(=O)C(CC(=O)O)O2 (stereo unspecified),-14.4%,-2.0,5.5,-49.6,-3.4,Arbovirus inh repeat=5.9

# Part of the list above in order of length of the SMILES, descending:
SMILES,Mtb H37Rv,Mtb betalactam,Arbovirus inh,YopH PTP inh,RecA intein inh,others
COc1cccc(NC(=O)CN(c2cccc(C(F)(F)F)c2)S(C)(=O)=O)c1,-2.2%,9.1,-2.0,-15.2,-2.1,
O=S(=O)(Nc1cccc2c1CCCC2)c1cccc(C(F)(F)F)c1,3.5%,0.2,7.0,-57.3,2.9,
Cc1ccc2nc(SCC(=O)Nc3cccc(Cl)c3)nc(=O)n2c1,·,-11.6,·,·,0.5,
O=C1C2C3CCCC3=C3CCCC3C2C(=O)N1c1ccccc1 (stereo unspecified),4.1%,-11.8,11.3,-0.9,3.9,

# The listing picks up, repeating the four entries before the break.
SMILES,Mtb H37Rv,Mtb betalactam,Arbovirus inh,YopH PTP inh,RecA intein inh,others
COc1ccc(C(=O)OCC(=O)c2ccc(C3CCCCC3)cc2)cc1,-4.0%,-5.7,17.9,-28.6,0.0,
O=C(c1cccc(F)c1)N1CCCC(C(=O)N2CCN(c3ccccc3)CC2)C1 (stereo unspecified),-8.1%,-5.5,·,·,-1.0,
Cc1onc(-c2ccccc2)c1-c1csc(COc2ccccc2)n1,0.2%,9.8,·,·,11.2,
Cc1ccc2c(c1)NC(=O)C(CC(=O)O)O2 (stereo unspecified),-14.4%,-2.0,5.5,-49.6,-3.4,Arbovirus inh repeat=5.9
COc1cc2c(cc1NC(=O)CSc1nc3ccc(C)cc3[nH]1)oc1ccccc12,51.1%,97.3,-23.9,-21.2,2.7,
Cc1ccc(N(CC(=O)NC2CCCCC2)S(=O)(=O)c2c(C)nn(C)c2C)cc1,·,9.4,·,·,0.1,
Cc1cc(C)cc(N(CC(=O)NCc2ccc(F)cc2)C(=O)c2snc(C(N)=O)c2N)c1,·,4.9,·,·,-8.8,
CN(C)S(=O)(=O)c1ccc(NC(=O)C2CC3C=CC2C3)cc1 (stereo unspecified),-3.7%,3.4,1.6,-17.7,0.0,
CC(C)Cc1nnc(NC(=O)CSc2ccccn2)s1,-3.5%,-13.5,8.0,-46.1,·,
CCN(CC)C(C)C(=O)Nc1c2c(cc3c1CCC3)CCC2 (stereo unspecified),-0.1%,8.2,4.3,-11.6,1.1,
CC1=C(C(=O)NC(C)c2ccc3c(c2)OCCO3)C2(CCC(C)CC2)OC1=O (stereo unspecified),0.3%,?,0.2,-9.5,1.8,
FC(F)(F)c1cc(CCN2C(=S)NC[C@@H]2c2ccccc2)cc(C(F)(F)F)c1,-7.8%,-6.0,·,·,7.0,
CSCCC(NC(=O)COc1ccccc1)C(=O)NCC1COc2ccccc2O1 (stereo unspecified),·,-6.0,·,·,-1.2,
S=C(Nc1ccccc1Cl)Nc1ccc(Cl)cc1Cl,-10.3%,-1.1,10.5,-1.0,9.1,
COc1ccc(C2C(C#N)=C(N)N(c3cccnc3)C3=C2C(=O)CC(C)(C)C3)cc1OC (stereo unspecified),2.3%,3.4,-0.3,-11.8,20.5,
Cn1cc(S(=O)(=O)Nc2ccc3c(c2)OCCO3)cn1,-4.8%,3.7,6.1,·,-0.9,
CCN1C(=O)CC(c2cccnc2)=Nc2ccccc21,-4.3%,-5.7,-6.0,·,3.8,
Cn1c(-c2ccc(F)cc2)cnc1NCc1ccccc1F,·,-5.5,·,·,-2.3,
CCOC(=O)NC(=O)/C(N=Nc1cc(C)cc(C)c1)=C(\C)O,4.7%,-1.1,-2.0,·,-3.0,
Cc1ccc(S(=O)(=O)N2CCN(C(=O)CC(C)(C)C)CC2)cc1,1.6%,-8.3,10.0,·,-2.4,
COC(=O)C1=C(c2ccc(OC)cc2)OC(=O)C1(C)C,·,-4.7,·,·,-4.2,
CCOC(=O)c1c(NS(=O)(=O)c2cccc(OC)c2)sc2c1CCC2,-1.2%,57.5,9.9,-33.9,-3.3,
CCc1nnc(NC(=O)CCC(=O)N2CCN(c3ccccn3)CC2)s1,·,-9.0,2.7,-47.5,0.8,
O=C(NN=C1CCCCC1)c1cc(-c2ccccc2)n[nH]1,74.7%,18.1,-11.6,-11.7,-1.8,
O=C(Cc1ccc(Cl)cc1)NCC(=O)N1CCN(Cc2ccccc2)CC1,·,-15.9,·,·,0.5,
CCOC(=O)N1CCC(NC(=O)c2cc(C)c3c(C)nn(-c4ccccc4)c3n2)CC1,4.1%,-15.8,-7.5,-36.5,1.4,
Cn1cc(S(=O)(=O)Nc2ccc(F)cc2F)c(=O)n(C)c1=O,1.1%,0.6,2.8,-22.9,-0.2,Arbovirus inh repeat=1.3
Cc1nc(C)c(C(=O)NCCC(c2ccccc2)c2ccccc2)o1,-1.6%,1.0,15.7,·,-1.5,
Cc1cc(Cl)c(S(=O)(=O)Nc2ccc(Cl)cn2)cc1OCC(N)=O,2.6%,0.7,1.5,-32.2,-0.8,

# Additional records
SMILES,Mtb H37Rv,Mtb betalactam,Arbovirus inh,YopH PTP inh,RecA intein inh,others
COc1ccc(OCCN2CCN(C(=O)c3ccc(OC)cc3)CC2)cc1,·,0.1,·,·,2.5,
CCC1Sc2ccc(S(=O)(=O)N3CCN(c4ccccc4)CC3)cc2NC1=O (stereo unspecified),·,4.1,·,·,-76.6,
COc1ccccc1-c1c(C(F)(F)F)oc2c(CN(C)C)c(O)ccc2c1=O,·,-1.6,·,·,-5.8,
COc1ccc(C(=O)CSc2nnc3ccccn23)cc1OC,-1.8%,-2.4,1.2,·,-0.7,
c1ccc2c(c1)CC1(CCCCC1)n1nnnc1-2,-8.0%,-2.2,0.3,-16.3,-0.2,
CC(C)NCC(O)COc1c(F)cc(Br)cc1F (stereo unspecified),0.3%,-16.5,1.2,-3.9,0.1,
CN(C)C(CNC(=O)C1CCN(S(=O)(=O)c2cccc(C(F)(F)F)c2)CC1)c1ccccc1 (stereo unspecified),·,-1.1,·,·,0.0,
Cc1cccc(Cn2nc(C(C)(C)C)cc2C(=O)N2CCOCC2)c1,·,-2.1,·,·,1.0,
CC(=O)c1c(O)n(-c2cccc(Cl)c2)c(=O)[nH]c1=O (tested in a mixture with another compound),-4.3%,-9.4,·,·,-0.4,
CN(C)S(=O)(=O)c1ccc(NC(=O)CCNC(=O)c2ccco2)cc1,·,-4.0,·,·,0.6,
CCCCOc1ccc(N(CC(=O)NC(C)C)C(=O)CCC(=O)Nc2ccccn2)cc1,-0.5%,-9.4,8.2,·,-4.7,
O=C(NC12CC3CC(CC(C3)C1)C2)C1=COCCO1,-8.7%,28.8,7.6,-26.7,-0.9,
O=C(c1cc(F)c(F)cc1Cl)N1CCN(c2ccc([N+](=O)[O-])c3ncccc23)CC1,5.1%,-2.5,4.6,-17.0,32.3*,
Cc1cccc(C)c1Nc1nnc(SCC(=O)Nc2ncc(C(F)(F)F)cc2Cl)s1,-6.2%,-0.3,4.8,-24.4,1.0,
COc1ccc(CC(=O)Nc2cc(C)on2)cc1,-1.0%,-7.6,5.7,3.3,0.8,
CCCSc1nc(C)cc(C)c1C(N)=O,-1.8%,1.8,9.8,5.2,-1.5,
COc1ccc(C(=O)CCN2CCCCCC2)cc1,3.8%,98.3,-32.5,-32.3,-5.8,
CCOC(=O)N1CCN(CC(=O)N2c3ccccc3CCc3ccccc32)CC1,6.8%,-4.0,7.5,·,0.6,
COc1ccc(C(=O)N/N=C\c2ccoc2)cc1,·,-16.2,·,·,0.0,
CN1CCc2c(sc3nc(NCCO)n(-c4cccc(Cl)c4)c(=O)c23)C1,·,-6.9,·,·,-5.7,
Cc1ccc(NC(=O)CCNS(=O)(=O)c2cccs2)cc1F,·,0.9,·,·,-0.2,
O=C(COc1ccc2ccccc2c1)NC1CC1,-6.3%,-8.5,1.5,2.3,-0.7,
CCOc1ccc(S(=O)(=O)N2CCN(Cc3ccccc3)CC2)c2cccnc12,-2.8%,-6.6,2.3,-30.7,1.8,
CCOc1ccc2cc(/C=C/C(=O)c3ccco3)c(Cl)nc2c1,·,-3.5,-7.9,3.9,-6.0,

# Six entries drawn at random from those above, as already listed:
SMILES,Mtb H37Rv,Mtb betalactam,Arbovirus inh,YopH PTP inh,RecA intein inh,others
COc1ccc(C(=O)N/N=C\c2ccoc2)cc1,·,-16.2,·,·,0.0,
CC(C)NCC(O)COc1c(F)cc(Br)cc1F (stereo unspecified),0.3%,-16.5,1.2,-3.9,0.1,
Cc1ccc(NC(=O)CCNS(=O)(=O)c2cccs2)cc1F,·,0.9,·,·,-0.2,
O=C(c1cc(F)c(F)cc1Cl)N1CCN(c2ccc([N+](=O)[O-])c3ncccc23)CC1,5.1%,-2.5,4.6,-17.0,32.3*,
CN1CCc2c(sc3nc(NCCO)n(-c4cccc(Cl)c4)c(=O)c23)C1,·,-6.9,·,·,-5.7,
CN(C)S(=O)(=O)c1ccc(NC(=O)CCNC(=O)c2ccco2)cc1,·,-4.0,·,·,0.6,

# These rows are one share of the data; the hit share may differ from the screen's.
